High-throughput results: PubChem BioAssay, Johns Hopkins Ion Channel Center
KCNQ2 pot: KCNQ2 (rat) channel potentiation | O88943 | CHO-K1 KCNQ2, FluxOR thallium flux fluorescence; active compounds read high | B-score at 10 µM | hit rate 0.54% among 310,000;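 active means fluorescence ratio B-score at least 3 SD of library B-scores, with initial fluorescence B-score within 3 SD, cut at about 5.3 in these data; same plate scores as AID 2156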;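 further: B-score of peak minus minimum over baseline fluorescence ratio after K+ and Tl+ stimulus; positive B-score means potentiation of KCNQ2 with more thallium influx and brighter signal; only the inactives scoring about 0 or higher are listed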
Target sequence (O88943 whole entry, looked up): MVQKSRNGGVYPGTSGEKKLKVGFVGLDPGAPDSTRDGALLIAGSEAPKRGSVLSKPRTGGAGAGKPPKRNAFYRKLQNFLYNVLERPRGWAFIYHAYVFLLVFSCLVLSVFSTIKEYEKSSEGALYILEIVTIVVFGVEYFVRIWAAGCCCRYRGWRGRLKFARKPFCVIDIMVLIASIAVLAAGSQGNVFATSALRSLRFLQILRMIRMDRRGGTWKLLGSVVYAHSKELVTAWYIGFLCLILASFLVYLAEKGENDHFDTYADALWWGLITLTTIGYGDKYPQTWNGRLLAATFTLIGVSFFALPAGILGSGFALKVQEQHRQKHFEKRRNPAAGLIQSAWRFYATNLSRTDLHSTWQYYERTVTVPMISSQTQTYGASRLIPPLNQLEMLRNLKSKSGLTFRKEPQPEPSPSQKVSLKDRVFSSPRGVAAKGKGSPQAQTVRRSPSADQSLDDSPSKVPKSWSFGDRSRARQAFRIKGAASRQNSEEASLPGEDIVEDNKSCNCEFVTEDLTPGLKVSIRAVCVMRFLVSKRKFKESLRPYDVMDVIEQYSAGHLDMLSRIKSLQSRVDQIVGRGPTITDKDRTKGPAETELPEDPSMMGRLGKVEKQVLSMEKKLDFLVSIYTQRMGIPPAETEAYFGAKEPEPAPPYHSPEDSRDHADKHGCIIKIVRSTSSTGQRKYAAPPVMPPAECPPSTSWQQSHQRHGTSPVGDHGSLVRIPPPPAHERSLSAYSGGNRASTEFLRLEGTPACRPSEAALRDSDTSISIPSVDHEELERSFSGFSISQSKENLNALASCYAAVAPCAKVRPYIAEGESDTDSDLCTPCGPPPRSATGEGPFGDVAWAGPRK
KCNQ2 pot baseline: second read-out of KCNQ2 pot, no call of its own (marks repeat the call); B-score; compound at 10 µM; measured here: initial fluorescence intensity artifact check;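 brightness before thallium and not channel activity; 0 = typical well and far values either way flag optical interference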
The depositor's hits bear a star. Not all compounds are listed. The share of hits here may be higher or lower than overall.

SMILES	KCNQ2 pot	KCNQ2 pot baseline
S=C1NC[C@H](c2ccccc2)N1CCCCC1CCCCC1	0.4	-1.29
CCN1CCN(C(=O)c2ccc(C)c(S(=O)(=O)Nc3cccc(C)c3)c2)CC1	0.43	-0.83
CN(C)C(CNC(=S)Nc1cccc(Cl)c1)c1cccnc1 (stereo not given)	0.98	0.25
O=C(NCCCN=C1NS(=O)(=O)c2ccccc21)c1ccc(Cl)cc1	0.41	-0.08
CC1CCCC(NC(=O)COC(=O)c2cccc(NS(=O)(=O)/C=C/c3ccccc3)c2)C1C (stereo not given)	2.58	1.5
CN(Cc1ccccn1)Cc1nc(COc2ccccc2)no1	1.83	0.01
CCCn1cnc2c(=S)nc(N)[nH]c21	0.29	0.51
CCc1ccccc1NC(=O)c1cc2ncc(Br)cn2n1	1.43	2.96
COc1ccc(CCNC/C=C/c2ccccc2)cc1	0.37	2.22
O=C(CCCSc1nc(-c2ccco2)cc(C(F)(F)F)n1)Nc1ccc2c(c1)OCO2	0.61	-1.17
CCOC(=O)N1CCC(NC(=O)Cn2nc(-c3ccccc3)ccc2=O)CC1	0.43	-0.19
Cc1cc2oc(=O)cc(CN3CCN(S(=O)(=O)c4cccs4)CC3)c2cc1C	0.47	0.72
CC1(C)c2[nH]c3ccccc3c2C[C@@H]2C(=O)N(c3cc(F)ccc3F)C(=O)N21	0.32	-2.56
COc1ccc(NC(=O)CCCCC(=O)Nc2ccc(OC)cc2)cc1	0.19	0.2
CN(Cc1cc2ccccc2[nH]c1=O)C(=O)c1cccs1	0.41	1
O=C(CSc1ccc2nnc(-c3cccnc3)n2n1)Nc1ccc(F)cc1F	0.71	0.83
Cc1ccccc1Nc1nc(N)nc(CSc2nnc(C)n2C)n1	1.4	0.17
COc1cc(C(C)=O)ccc1OCC(O)CN1CCN(c2cc(C)cc(C)c2)CC1 (stereo not given)	1.17	-1.95
COC(=O)COc1nc(C)c2c(c1C#N)CC(C)(C)OC2	0.17	1.11
COc1ccc(NC(=O)CSc2nncs2)cc1S(N)(=O)=O	1.46	-0.19
O=C(NC(=S)Nc1cccc(O)c1)c1ccco1	2.1	0.82
CC(C)NC(=O)CCCn1cc([N+](=O)[O-])cn1	0.35	0.01
Nc1cc(C(=O)OCC(=O)N2CCCC2)ccc1Cl	0.3	0.15
O=C(Cn1c(O)c(/C=C2\C=Nc3ccc(Br)cc32)sc1=O)N1CCCC1	0.43	-1.67
Cc1cc(C(F)F)n2nc(C(=O)Nc3ccc(S(=O)(=O)NC45CC6CC(CC(C6)C4)C5)cc3)nc2n1	0.46	-0.5

By substructure: the entries above containing an aryl thioether with sulfur outside any ring.
SMILES	KCNQ2 pot	KCNQ2 pot baseline
O=C(CCCSc1nc(-c2ccco2)cc(C(F)(F)F)n1)Nc1ccc2c(c1)OCO2	0.61	-1.17
O=C(CSc1ccc2nnc(-c3cccnc3)n2n1)Nc1ccc(F)cc1F	0.71	0.83
Cc1ccccc1Nc1nc(N)nc(CSc2nnc(C)n2C)n1	1.4	0.17
COc1ccc(NC(=O)CSc2nncs2)cc1S(N)(=O)=O	1.46	-0.19

(continued)
SMILES	KCNQ2 pot	KCNQ2 pot baseline
CC(OC(=O)c1ccc(Cl)nc1)C(=O)N1CCc2ccccc21 (stereo not given)	0.06	-2.22
C=COc1ccc(N2C(=O)c3ccccc3OC2C)cc1 (stereo not given)	0.04	-0.7
O=c1cc(CSc2nc3ccccc3[nH]2)c2ccccc2[nH]1	0.5	1.8
O=C(O)c1ccccc1NC(=O)C1CCN(S(=O)(=O)c2cccc3nsnc23)CC1	0.04	0.51
CCCC(CCC(=O)Nc1ccc(C(=O)OCC)cc1)C(=O)O (stereo not given)	0.79	0.98
CCCOc1cccc(C2C(C(=O)c3ccc(C)o3)=C(O)C(=O)N2c2nc(C)c(C(C)=O)s2)c1 (stereo not given)	1.77	-1.69
COc1ccc(NC(=O)c2sc(NC(=O)COc3ccccc3)nc2C)cc1	0.9	-0.29
C=CCn1c(SCC(=O)Nc2ccccc2OC)nc(O)c(CC)c1=O	0.81	-0.01
S=C(NCC1CCCO1)Nc1cccc2ccccc12 (stereo not given)	0.32	0.05
CCOC(=O)C1CCCN(C2CC(=O)N(c3ccc(C)cc3)C2=O)C1 (stereo not given)	0.3	-1.75
O=C(Nc1ncccn1)c1ccc([N+](=O)[O-])o1	0.01	-0.7
COc1cc(-c2nc(-c3ccccn3)no2)cc(OC)c1OC	0.19	-2.4
Cc1cc(C)c(C)c(S(=O)(=O)N2CCN(C(=O)C3CCC3)CC2)c1C	1.41	-0.39
COc1cc(C(=O)NCc2ccncc2)cc(OC)c1OC	0.61	-0.76
CC(C)Sc1nc2c([nH]c3ccccc32)c(=O)n1C	0.89	0.5
O=C(COC(=O)/C=C/c1cccc(C(F)(F)F)c1)NCc1ccco1	0.21	0.37
CCc1ccc(NC(=O)COC(=O)c2cccs2)cc1	0.83	0.68
Cc1c(C(=O)N2CCC(N3CCSCC3)CC2)oc2c(F)cccc12	0.01	-1.09
COCC(=O)N(Cc1cc2cc(OC)ccc2[nH]c1=O)c1ccccc1	1.91	-0.25
Cc1ccc(CC2CC(=O)N(c3nc(C)cc(C)n3)C2=O)cc1 (stereo not given)	1.36	-0.86
CCCCCCCc1nc2sc3c(c2c(=O)n1N)CC(C)(C)OC3	0.16	1.58
CCOC(=O)C(=O)Nc1cc(C)on1	0.48	-0.11
O=C(NCCC1=CCCCC1)C1CCN(C(=O)Nc2ccccc2)CC1	0.79	1.53
COc1ccc(C(C)NC(=O)C2CCCO2)cc1OC (stereo not given)	1.69	-0.67
Cc1ccc(Cl)cc1N1CCN(C(=O)c2ccc(CN3CCOCC3)cc2)CC1	0.01	-0.74

The listing continues.
SMILES	KCNQ2 pot	KCNQ2 pot baseline
CCc1nnc(NC(=O)c2nn(-c3ccccc3)nc2C)s1	1.33	0.38
COc1cc(OC)c(NS(=O)(=O)c2ccc(Cl)c(C(=O)OC(C)C(=O)N3CCCC3)c2)cc1Cl (stereo not given)	0.23	-1.13
OC(COc1c(Br)cc(Br)cc1Br)CN1CCOCC1 (stereo not given)	0.71	0.18
O=C(Cc1ccc(Cl)cc1Cl)Nc1ccncc1	2.29	0.41
CCOC(=O)c1c(C)n(C)c2cc(OCCN(CC)CC)ccc12	1.08	0.14
CCCCCOC(=O)Cn1c(=O)c2c(nc(N3CCOCC3)n2C)n(C)c1=O	1.94	0.16
O=C(CN1C(=O)COc2ccccc21)NCCCN1CCOCC1	0.2	-0.04
COc1cccc(C2CC(c3cccs3)=NN2S(C)(=O)=O)c1OC (stereo not given)	0.1	1.83
O=C(CN(c1ccccc1F)S(=O)(=O)c1ccccc1)Nc1ccccc1C(=O)N1CCOCC1	2.11	-0.04
CN(C)c1ccc(C(=O)/C=C/c2ccccc2)cc1	0.01	0.4
O=C(NCc1ccccc1)C1CCCN(C(=O)Nc2ccccc2)C1 (stereo not given)	1.96	-0.83
O=C(Nc1ccc(Br)cc1)c1ccc2ncsc2c1	0.43	-0.28
N/C(=N\OC(=O)COc1ccc2ccccc2c1)c1cccnc1	1.45	4.48
Cc1cc(C)c(NC(=O)CSc2nc3ccc(NC(=O)CSc4nnnn4Cc4ccccc4)cc3s2)c(C)c1	0.35	-0.17
C=C(C(=O)Nc1ccccc1)c1ccc(C)cc1	0.01	0.5
COc1ccc(C2CC(C(F)(F)F)n3nc(C(=O)Nc4c(C)n(C)n(-c5ccccc5)c4=O)c(Cl)c3N2)cc1 (stereo not given)	0.19	-1.68
Cc1cc2c(C)nc(N/N=C/c3ccc([N+](=O)[O-])cc3)nc2o1	2.02	-0.04
C=CCn1c(Cc2ccc(OC(C)C)c(Cl)c2)nnc1SCC(N)=O	0.09	-0.61
O=C(CN1CCCCC1)Nc1ccc(N2CCCCCC2)cc1	2.43	-0.22
O=C(CCCN1C(=O)/C(=C\c2cccs2)SC1=S)NNC(=O)c1ccncc1	0.01	-0.76
CCC(C)N(C(=O)CSc1nnc(-c2ccco2)n1C)C1CCS(=O)(=O)C1 (stereo not given)	0.12	-0.96
O=C(Cc1cccc(C(F)(F)F)c1)Nc1ccccc1N1CCCC1	11.2*	-0.09*
COc1ccc(C(=O)Nc2ccc(-c3n[nH]c(=S)o3)cc2)cc1	0.74	0.44
Cc1ccc(S(=O)(=O)Nc2nnc(C(C)(C)C)s2)cc1	0.94	-0.18
COc1cccc(C(=O)CN2C(=O)C(C)(C)Oc3ccc(C(=O)N4CCOCC4)cc32)c1	0.26	1.86

(cont.)
SMILES	KCNQ2 pot	KCNQ2 pot baseline
Cn1nc(CSc2ccccc2)c(C=O)c1Cl	0.33	-0.67
Cc1[nH]c(C(=O)O)c(C)c1C(=O)OC(C)C	2.53	-0.87
O=C(Cc1ccccc1)NCC(=O)N1CCC2(CC1)NCCc1[nH]cnc12	1.68	-0.18
CC1CCN(C(=O)COC(=O)Cn2cnc3c2c(=O)n(C)c(=O)n3C)CC1	0.3	-0.83
O=S(=O)(c1ccc(Cl)cc1)N1CCCN(c2nc3ccc(Cl)cc3s2)CC1	0.48	-0.12
Cc1cc(NC(=S)NC(=O)CC(C)C)ccc1Br	0.82	-0.2
CCCCCCCCC(=O)N/N=C(\C)c1ccc(O)cc1O	5.02	0.26
COc1ccc(N(CC(=O)Nc2ccc(S(=O)(=O)N3CCCCC3)cc2)S(C)(=O)=O)cc1OC	0.43	-1.7
COCC(=O)OCC(=O)Nc1cc(C(C)(C)C)nn1-c1ccccc1	0.21	1.11
COc1ccc(N2CCN(CCC(N)=O)CC2)cc1	0.97	-1.9
COc1cccc(CN2CCN(C3CCN(c4cccc(C)c4C)CC3)CC2CCO)c1 (stereo not given)	0.57	-0.48
CC1(C)Cc2c(c(-c3ccccc3)nc3[nH][nH]c(=O)c23)CO1	0.77	-1.37
COc1ccc(OC)c(C2=NOC(C(=O)NCCN3CCOCC3)C2)c1 (stereo not given)	0.04	3.91
O=C(COc1nsnc1N1CCOCC1)Nc1cccc(Cl)c1	3.61	-0.32
CCCCOc1ccc([N+](=O)[O-])cc1C(=O)O	2.73	-2.59
COc1ccc(/C=C(\NC(=O)c2ccc(OC)cc2)C(=O)Nc2cccc(C(=O)O)c2)cc1	0.22	1.01
CC1CCc2sc(C(=O)N(C)CC(=O)Nc3cccc(F)c3)cc2C1 (stereo not given)	0.57	-2.09
Cc1cc(C)nc(N2N=C(C(F)(F)F)CC2=O)n1	1.03	1.84
CCN(Cc1ccccc1)C(=O)c1c[nH]c2ccc(S(=O)(=O)N(C)CCC#N)cc2c1=O	0.41	-0.03
CN(c1ccccc1C(=O)N1CCc2ccccc2C1)S(C)(=O)=O	0.85	0.37
O=S(=O)(c1ccccc1)c1cnc2ccccc2c1	0.28	-0.07
CC(=O)c1ccc(OCC(O)CN2CCOCC2)cc1 (stereo not given)	1.3	0.68
Nc1ncc([N+](=O)[O-])cc1Br	0.29	0.54
O=C(CCC(=O)OCC(=O)c1ccc(Br)cc1)Nc1cccc2cccnc12	0.2	-0.02
CC(=O)N/C(=C\c1ccc(C)cc1)C(=O)O	0.39	-1.84

Compounds from the list above containing a thiophene ring, fused or not (7):
SMILES	KCNQ2 pot	KCNQ2 pot baseline
Cc1cc2oc(=O)cc(CN3CCN(S(=O)(=O)c4cccs4)CC3)c2cc1C	0.47	0.72
CN(Cc1cc2ccccc2[nH]c1=O)C(=O)c1cccs1	0.41	1
CCc1ccc(NC(=O)COC(=O)c2cccs2)cc1	0.83	0.68
CCCCCCCc1nc2sc3c(c2c(=O)n1N)CC(C)(C)OC3	0.16	1.58
COc1cccc(C2CC(c3cccs3)=NN2S(C)(=O)=O)c1OC (stereo not given)	0.1	1.83
O=C(CCCN1C(=O)/C(=C\c2cccs2)SC1=S)NNC(=O)c1ccncc1	0.01	-0.76
CC1CCc2sc(C(=O)N(C)CC(=O)Nc3cccc(F)c3)cc2C1 (stereo not given)	0.57	-2.09

New compounds follow.
SMILES	KCNQ2 pot	KCNQ2 pot baseline
O=C(O)c1cc(-c2c[nH]c3ccccc23)nc2ccc3ccccc3c12	0.45	-1.15
O=C(CSc1nnc(NC(=O)c2ccco2)s1)Nc1ccccc1	0.37	-0.86
COC(C(=O)NNS(=O)(=O)c1ccccc1[N+](=O)[O-])c1ccccc1 (stereo not given)	1.4	-0.37
c1ccc(N2CCN(C3CCSC3)CC2)cc1 (stereo not given)	0.13	-3.16
COCCSc1nnc(NC(=O)Cc2ccc(OC)cc2)s1	0.02	0.2
CCOC(=O)c1[nH]c2ccc(OC)cc2c1NC(=O)c1ccc(OC)c(OC)c1	1.41	-1.28
O=C1/C(=C/c2ccncc2)SC(=S)N1C1CCCCC1	0.33	-0.65
Cc1cccc(Nc2nc(N3CCOCC3)nc(N3CCOCC3)n2)c1	0.48	-1.83
CCCC1(CCC)NC(=O)N(CC(=O)N2CCN(C(=O)c3ccco3)CC2)C1=O	0.37	-1.87
O=S(=O)(Cc1ccccc1)N1CCN(C/C=C/c2ccccc2)CC1	1.35	0.75
CCOc1ccc(S(=O)(=O)Nc2cccc(C(=O)N3CC(C)OC(C)C3)c2)cc1 (stereo not given)	2.27	1.69
Cc1ccc([N+](=O)[O-])cc1NC(=O)CNC1CCCCC1	0.14	1.1
CC(OC(=O)c1cc[n+]([O-])cc1)C(=O)NCc1ccccc1 (stereo not given)	0.98	1.14
O=C(NN1C(=O)C2C(C1=O)C1C=CC2C12CC2)c1ccncc1 (stereo not given)	0.63	2.86
O=C(NCc1cccs1)C(Cc1ccccc1)NS(=O)(=O)c1cccs1 (stereo not given)	3.09	-2.17
CCn1cc(CN2CCC(C(=O)Nc3cccc(-c4cscn4)c3)CC2)cn1	0.44	0.14
CCS(=O)(=O)N1CCCC(C(=O)NC2CCCC2)C1 (stereo not given)	1.64	-0.73
CC(C)c1ccc(/C=N/n2cnnc2)cc1	0.46	-0.21
COCCNC(=O)C1CC(c2cccc(F)c2)=NO1 (stereo not given)	0.07	-2.09
COc1cccc(-c2nn(Cc3ccccc3)cc2CO)c1	0.26	0.1
O=C(CCc1ccccc1)NNC(=O)Nc1ccc(F)c(Cl)c1	0.95	-1.44
